VDR inh: inhibitors of human vitamin D receptor; P11473; VDR-SRC2-3 peptide fluorescence polarization, 2 h; Potency, µM, for the others: max response, negative = inhibition, most hits filed as inhibitors; 0.93% of 400,000 active; AID 504847; active = well fitted inhibition curve with a large enough effect; inconclusive = small, poorly fitted or top-dose-only effect, or another doubt; inactive = no such curve, though single readings can be large or run the other way; note: series mostly up to about 120 µM
Target sequence (P11473 whole entry, looked up): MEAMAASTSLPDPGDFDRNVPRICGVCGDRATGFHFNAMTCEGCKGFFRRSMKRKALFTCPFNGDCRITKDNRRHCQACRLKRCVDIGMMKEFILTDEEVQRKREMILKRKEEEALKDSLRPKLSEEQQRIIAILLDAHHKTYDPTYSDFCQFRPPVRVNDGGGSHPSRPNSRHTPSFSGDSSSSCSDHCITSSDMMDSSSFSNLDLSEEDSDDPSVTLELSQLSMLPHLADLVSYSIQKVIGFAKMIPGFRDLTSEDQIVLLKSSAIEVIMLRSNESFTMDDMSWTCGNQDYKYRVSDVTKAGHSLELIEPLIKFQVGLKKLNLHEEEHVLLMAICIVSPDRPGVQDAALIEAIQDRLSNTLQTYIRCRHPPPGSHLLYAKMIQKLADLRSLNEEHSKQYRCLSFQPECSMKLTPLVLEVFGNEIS
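FP read-out; VDR + SRC2-3 coactivator peptide; 23 nl compound by pintool; 2 h RT incubation; reagents held at 4 deg C, protected from light.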
The depositor's hits bear a star; ? = inconclusive; & = joins results of further samples; [ ] = remark or other dose. % is set by controls: 0 for no effect and ±100 for the full control effect; potency is the fitted concentration of half-maximal effect. Some of the compounds tested. The share of hits here may be higher or lower than overall.

canonical_smiles	VDR inh
CCN1C/C(=C/c2cccc([N+](=O)[O-])c2)C(=O)/C(=C/c2cccc([N+](=O)[O-])c2)C1	10µM*
CC(C)NC(=O)NC1C2CC3CC(C2)CC1C3 (centres undefined)	13%
O=C(O)c1ccccc1C(=O)Nc1ccc(S(=O)(=O)N2CCCC2)cc1	-6%
CCc1ccc(NC(=O)Cn2c(SCc3ccc(C)cc3)nc3ccncc32)cc1	-3%
CC(C)C[C@H](NC(=O)[C@H](Cc1ccccc1)NC(=O)[C@@H]1CCCN1C(=O)[C@H](CC(=O)O)NC(=O)[C@@H]1CCC(=O)N1)C(=O)N[C@@H](CCCN=C(N)N)C(=O)N[C@@H](Cc1ccccc1)C(N)=O	11%
C=CCn1c(=NC(=O)c2sc3ccccc3c2Cl)sc2cc(S(N)(=O)=O)ccc21	-4%
O=[N+]([O-])c1ccc(CSc2ccc(S(=O)(=O)N3CCCC3)cn2)cc1	-17%
CC(C)COc1ccc(C(=O)N(Cc2cccc(F)c2)C2CCS(=O)(=O)C2)cc1 (centres undefined)	10%
COc1cccc(NS(=O)(=O)c2ccc3[nH]cc(C(=O)NCCc4ccc(C)cc4)c(=O)c3c2)c1	20%
CN(C)/C=N/c1c(C#N)cnn1-c1ccc(C(F)(F)F)cn1	4%
Cc1ccc(CNC(=O)c2nc(-c3ccc(Cl)cc3)n3c2CCCCC3)cc1	4%
Cc1ccc(S(=O)(=O)N(C)C)cc1NC(=O)C(C)Sc1ccccc1 (centres undefined)	11%
C[N+]1(CC(=O)OCCCc2ccccc2)CCCC1	-8%
CC(=O)O[C@H]1C(=O)[C@@]2(C)C([C@H](OC(=O)c3ccccc3)[C@]3(O)C[C@H](OC(=O)[C@H](O)[C@@H](NC(=O)c4ccccc4)c4ccccc4)C(C)=C1C3(C)C)[C@]1(OC(C)=O)CO[C@@H]1C[C@@H]2O (some centres undefined)	-1%&0%
COCCN(C(=O)COC(=O)CCC(=O)c1ccc(Cl)cc1)c1c(N)n(Cc2ccccc2)c(=O)[nH]c1=O	?
O=C(c1ccc2c(c1)N(Cc1ccc(Cl)cc1)C(=O)c1ccccc1S2=O)N1CCN(c2ccccc2F)CC1 (centres undefined)	-24%
CC1=C(C(=O)OCc2ccccc2)C(c2ccc(N(C)C)cc2)NC(=O)N1 (centres undefined)	-9%
N#CCCN(C(=O)COC(=O)c1cc(=O)c2ccccc2o1)c1ccccc1	2%
Cc1ccc(/C=N/Nc2nc(N3CCCCC3)nc(N3CCCCC3)n2)o1	-12%
CC(=O)Nc1ccccc1NC(=O)C/C(C)=N/NC(=O)c1cccnc1	0%
Fc1ccc(Cn2cccc2C2=NC(c3ccccc3)CO2)cc1 (centres undefined)	-10%
O=C(Nc1ccc(Br)cc1)C1CCCN(C2=NS(=O)(=O)c3ccccc32)C1 (centres undefined)	19%
O=C(NCc1ccc2c(c1)OCO2)C1CC(c2ccc(Cl)c(Cl)c2)=NO1 (centres undefined)	6%
COc1ccc(C(=O)/C=C/NCc2ccc(F)cc2)cc1OC	-12%
CCC(CC)c1nnc(NC(=O)c2ccc3c(c2)OCO3)s1	79µM*

(cont.)
canonical_smiles	VDR inh
O=C(Nc1ncc(Cc2cccc(Cl)c2)s1)c1cccs1	-5%
O=C(NCCCN1CCN(c2ccccc2F)CC1)c1nnc(Cc2ccc(Cl)cc2Cl)o1	-12%
N=c1nc(-c2ccccc2)ccn1O	-10%
COc1ccc(S(=O)(=O)CCC(=O)NCCc2ccc(Cl)cc2)cc1	-5%
O=S(=O)(/N=C(/Nc1ccc(Cl)c(S(=O)(=O)Nc2ccccc2Cl)c1)c1ccc(F)cc1)c1ccccc1	9%&-13%
COc1ccc(-n2c(SCC(=O)N3CCN(c4ccccc4)CC3)nc3c(c2=O)SCC3)cc1	0%
CN(C(=O)COC(=O)c1cc(-c2ccc(Cl)s2)nc2ccccc12)C1CCS(=O)(=O)C1 (centres undefined)	-9%
CC(NC(=O)c1ccc(C(C)(C)C)cc1)C(c1cccs1)N1CCOCC1 (centres undefined)	-7%
CC(C)(C)OC(=O)C[C@H]1C/C=C\C[C@@H](CC(=O)N[C@H](CO)Cc2ccccc2)C(=O)N2CCC[C@H]2COC1=O	-12%
CCOC(=O)N1CCc2c(sc(NCc3ccc(N(C)C)cc3)c2C(=O)Nc2ccccc2OCC)C1	0%
COc1ccc(/C=C2\N=C3CCCCCN3C2=O)cc1	-20%
C/C(=N\NC(=O)CNc1cccc2ccccc12)c1ccccc1	-15%
COc1ccc(-c2c(C(F)(F)F)nn(C)c2NC(=O)c2ccco2)cc1	-17%
O=C(COC(=O)c1ccc[nH]c1=O)NC1CCCCCCC1	-10%
O=C(Nc1cnn(Cc2ccc(F)cc2)c1)c1cnn2c(C(F)F)cc(-c3ccccc3)nc12	11%&-5%
Cc1nnc(SCC(=O)NC2CCCCC2)s1	-6%
CCCCc1nnc(NC(=O)Cc2ccc(S(=O)(=O)N3CCOCC3)s2)s1	-17%
COCCN(C(=O)c1cc2c(s1)CCCCC2)c1c(N)n(CC(C)C)c(=O)[nH]c1=O	-16%
CCCCC1(Br)C(=O)N(c2ccccc2)N(c2ccccc2)C1=O	71µM*
COCCCN1C(=O)C(=O)/C(=C(/O)c2ccc(S(=O)(=O)N3CCCCC3)cc2)C1c1ccc(F)cc1 (centres undefined)	3%
CCOC(=O)c1oc2cccc(O)c2c1C	-21%
O=C(NCCN1CCOCC1)C1CC(=O)N(c2ccc(F)c(Cl)c2)C1 (centres undefined)	-4%
Cc1cc(C)nc(-n2ncc3c2CCCC3=O)n1	3%
C#CCOCCOCCOCCNc1nc(N2CCN(C(=O)Cn3cc(CCO)nn3)CC2)nc(N2CCN(C(=O)[C@H]([C@@H](C)O)n3cc(CCCCN)nn3)CC2)n1	-26%
Cc1ccccc1NC(=O)CCC(=O)N/N=C/c1ccncc1	-6%

Taken from the results shown, 2 compounds:
canonical_smiles	VDR inh
O=C(Nc1ncc(Cc2cccc(Cl)c2)s1)c1cccs1	-5%
O=C(NCCCN1CCN(c2ccccc2F)CC1)c1nnc(Cc2ccc(Cl)cc2Cl)o1	-12%

The list continues:
canonical_smiles	VDR inh
O=C(COC(=O)CCc1nc2ccccc2c(=O)[nH]1)Nc1ccccc1OC(F)F	-2%
Cc1cc(C)n(C(=O)CN2C(=O)COc3ccccc32)n1	-15%
Cc1ccc2c(C(=O)CN3CCCCC3)c(C)[nH]c2c1	28%
CN(Cc1cn(-c2ccccc2)nc1-c1ccc(F)cc1)C(=O)CCC(=O)O	-14%
CC(=O)Nc1ccc(-c2csc(NCc3ccccc3)n2)cc1	-18%
CCOc1ccccc1NC(=O)c1c(Br)cnn1C	-7%
Cc1ccc(-n2ccc(=O)c(C(=O)Nc3ccc(S(=O)(=O)Nc4onc(C)c4C)cc3)n2)cc1	-2%
COc1cc(OC)cc(C(=O)NCC(=O)NC(C)c2ccccc2)c1 (centres undefined)	-6%
O=C(CSc1nnc(Cc2ccccc2)o1)NCc1ccco1	-4%
COc1ccc(Br)cc1CN(C)C(=O)c1ccccc1SCC(=O)N1CCCC1	-27%
Cc1cc2ncn(C(=O)N3CCCC3)c2cc1C	6%
COc1cccc(Nc2ccc([N+](=O)[O-])c3nonc23)c1	8%
CC(C)(C)Cc1nnc(NS(=O)(=O)c2ccccc2)s1	-13%
Cc1ccc(NS(=O)(=O)c2ccc3[nH]c4c(c3c2)CCCCCC4)cc1	8%
Cc1nn2c(N3CCN(C4CCCC4)CC3)cc(C(C)(C)C)nc2c1-c1ccccc1	-2%
O=C(CCS(=O)(=O)c1cccc2nonc12)NCCc1ccccc1Cl	25%
CN(C(=O)COc1ccc(Br)cc1Cl)C1CCCCC1	2%
CSc1nc(N2CCN(Cc3ccc4c(c3)OCO4)CC2)c2ccccc2n1	-8%
O=[N+]([O-])c1ccc(NN=CCCc2ccccc2)nc1	7%
Cc1cccc(CC2S/C(=N/N=C/c3ccco3)N(c3ccccc3)C2=O)c1 (centres undefined)	16%
CSCCC(NC(=O)COc1ccccc1)C(=O)N1CCC(C(N)=O)CC1 (centres undefined)	-29%
Cc1cnc(CNc2ccnc(-c3ccccc3Cl)n2)cn1	-1%
CC1CCN(S(=O)(=O)c2cccc(C(=O)N(Cc3ccccc3)c3ccccn3)c2)CC1	-11%
O=C(O)CC1c2ccccc2S(=O)(=O)N1Cc1ccccc1 (centres undefined)	9%
CCN(C(=O)Cn1c(=O)oc2cc(S(=O)(=O)N3CCCCC3)ccc21)c1ccccc1	1%

The listing continues.
mol | VDR inh
CC(C)c1onc(C(=O)NCc2ccccc2)c1[N+](=O)[O-] | -17%
N#CC1(NC(=O)CSc2nc3ccc([N+](=O)[O-])cc3s2)CCCCC1 | 9%
CCn1c(C)c(Br)c(=O)c(C(=O)OC)c1-c1ccc(Cl)cc1 | 3%
Cn1cc(CN2CCC(N3CCNC(=O)CC3)CC2)c(-c2ccccc2F)n1 | 20%
COc1ccc(OC)c(NC(=O)CCN2CCN(c3ccccc3F)CC2)c1 | -24%
CCOc1cc(NC(=O)c2ccco2)c(OCC)cc1NC(=O)c1ccco1 | 30%[activator]
COc1ccc(CCNC(=O)CCSc2nc(-c3ccco3)cc(C(F)(F)F)n2)cc1 | 2%
O=C1COc2ccc(S(=O)(=O)N3CCC(C(=O)NCc4ccccc4)CC3)cc2N1 | -22%

3 compounds out of the list above, ordered by the number in VDR inh, highest first.
structure	VDR inh
N#CC1(NC(=O)CSc2nc3ccc([N+](=O)[O-])cc3s2)CCCCC1	9%
COc1ccc(CCNC(=O)CCSc2nc(-c3ccco3)cc(C(F)(F)F)n2)cc1	2%
CC(C)c1onc(C(=O)NCc2ccccc2)c1[N+](=O)[O-]	-17%

Carrying on.
mol | VDR inh
C=CCSc1nc2ccccc2n1C(=O)/C=C/c1cc(OC)c(OC)c(OC)c1 | ?
Cc1ccc2c(c1)N(C(=O)CCC(=O)NCc1cccnc1)CCO2 | -15%
O=C(NC1C/C(=N/O)c2cc3c(cc21)OCO3)C(F)(F)F (centres undefined) | -2%
COc1ccc(CNC(=O)CCC(=O)N2CCN(C(C)=O)CC2)cc1 | 9%
COc1ccc(/C=C(\C#N)C(=O)N2COCC2(C)C)cc1 | -12%
O=C(c1ccc(-c2ccccc2)cc1)C1CCCN(Cc2ccncc2)C1 (centres undefined) | 2%
Cn1cc(C=C2C(=O)CC(C)(C)CC2=O)c2ccccc21 | -18%
CC(C)(C)c1ccc(C(=O)NCCOc2ccccc2)cc1 | -13%

Other records follow.
mol | VDR inh
COc1ccc(/C=c2/sc3n(c2=O)NC2(c4ccccc4)N(C)C(=O)N(C)C2(c2ccccc2)N=3)cc1 (centres undefined) | 2%
CC(CCc1ccccc1)NC(=S)NC1CCCCC1 (centres undefined) | 8%
CCN1CCN(c2ccc(N3CCN(S(=O)(=O)c4cc([N+](=O)[O-])ccc4C)CC3)nn2)CC1 | ?
Cc1ccc(S(=O)(=O)C2(C(=O)Nc3ccc(F)cc3)CC2)cc1 | 14%
COCCNC(=O)CSc1nc2nn(-c3ccccc3)c(=O)c-2c2n1CCCCC2 | 2%
CCOC(=O)c1ccccc1NC(=O)c1sc2ccccc2c1Cl | -25%
O=C1/C(=C/c2ccccc2)SC(=S)N1CC(=O)N1CCCCC1c1cccnc1 (centres undefined) | 10%
Cc1c(C)c2c(C)nn(-c3ccccc3)c2[nH]c1=O | -8%

Overlap with the part before: 5 compounds, followed by the next part.
mol | VDR inh
Cc1ccc(S(=O)(=O)C2(C(=O)Nc3ccc(F)cc3)CC2)cc1 | 14%
COCCNC(=O)CSc1nc2nn(-c3ccccc3)c(=O)c-2c2n1CCCCC2 | 2%
CCOC(=O)c1ccccc1NC(=O)c1sc2ccccc2c1Cl | -25%
O=C1/C(=C/c2ccccc2)SC(=S)N1CC(=O)N1CCCCC1c1cccnc1 (centres undefined) | 10%
Cc1c(C)c2c(C)nn(-c3ccccc3)c2[nH]c1=O | -8%
COC(=O)Cc1cc(=O)[nH]c(/N=C(\N)Nc2ccc(C)cc2C)n1 | 3%
O=C(O)CC1CCCc2ccccc2C1O (centres undefined) | -3%
CCN(c1ccc(Cl)cc1)S(=O)(=O)c1nnc(NC(=O)c2ccccc2C)s1 | 2%
COc1ccccc1CNC(=O)CSc1nnc(C)c2c(C)n(-c3ccccc3)nc12 | -14%
COc1cccc(-c2nc(-c3cccs3)no2)c1 | 10%
Cc1ccccc1NC(=O)c1c(C)oc2ccc(O)c(CN3CCCCCC3)c12 | 7%
CCOc1ccc(N2Cc3ccccc3C2)cc1 | -8%
O=C(c1ccc(-c2nc3ccccc3s2)o1)N1CCN(c2ccccc2O)CC1 | -10%

Carrying on.
mol | VDR inh
COc1ccc(OC)c(CCNC(=O)C(C)n2c(C)c3cnn(-c4ccccc4)c(=O)c3c2C)c1 (centres undefined) | 12%
C=CCn1cnc2c(NCc3ccccc3)ncnc21 | 7%
Cc1ccc(C(c2nnnn2C(C)(C)C)N2CCN(C3CCCC3)CC2)cc1 (centres undefined) | -10%
COc1ccc(/C(C)=N/NC(=O)c2nnn(-c3nonc3N)c2-c2ccccc2)cc1 | -5%
O=C(Nc1cccnc1)c1cccc([N+](=O)[O-])c1 | 1%
COc1ccc2c(C=O)c[nH]c2c1 | 2%
Cc1ccc(NC(=O)C2=C(O)c3sccc3N(C)S2(=O)=O)cc1 | 5%
Nc1ncc2c(n1)CC(c1ccco1)CC2=O (centres undefined) | -9%
COc1ccc(CNC(=O)CNC(=O)[C@@H]2Cc3ccccc3CN2)cc1 | -19%
COc1ccc2cc(C(=O)N/N=C/c3sc4ccccc4c3O)ccc2c1 | -18%

Compound activity deposited in PubChem BioAssay by National Center for Advancing Translational Sciences (NCATS).
